Source: PubChem
Cruzain Triton – qHTS Assay for Promiscuous and Specific Inhibitors of Cruzain (with detergent); Cruzipain (Trypanosoma cruzi), P25779; purified cruzain, Z-FR-AMC fluorescence, 0.01% Triton; AID 1478, 2009; 200,000 tested, 0.43% active; Potency, µM, inactives show max response, negative = inhibition, usual class: inhibitors;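 also: plate controls were neutral wells for no effect and buffer without enzyme for full effect; nearly all actives have a fitted effect of over 40% in size; top concentration of the series not given in the record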
Target sequence (P25779 123-467 limits assumed): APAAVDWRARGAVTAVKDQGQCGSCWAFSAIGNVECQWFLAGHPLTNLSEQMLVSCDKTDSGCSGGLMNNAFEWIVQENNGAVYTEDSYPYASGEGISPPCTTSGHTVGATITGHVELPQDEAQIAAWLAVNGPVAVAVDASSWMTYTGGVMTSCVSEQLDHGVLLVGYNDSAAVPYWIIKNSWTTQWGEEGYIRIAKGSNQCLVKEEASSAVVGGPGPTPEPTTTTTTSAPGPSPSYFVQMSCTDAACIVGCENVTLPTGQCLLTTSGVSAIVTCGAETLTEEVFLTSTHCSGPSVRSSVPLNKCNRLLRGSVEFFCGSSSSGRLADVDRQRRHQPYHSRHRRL
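Z-FR-AMC hydrolysis (2 uM substrate) by cruzain (1.5 nM) monitored kinetically at ex 360/em 450 nm after 15 min room-temperature compound exposure; 0.01% Triton X-100, pH 5.5, 5 mM DTT.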
LASV entry inh – qHTS for Inhibitors of binding or entry into cells for Lassa Virus | Lassa virus pseudotype entry inhibition, cell reporter; control for the full effect not named in the record | Potency, µM (highest dose often 37.9 µM), without a hit: at the top dose activity change, negative = inhibition, most hits filed as inhibitors | 300,000 tested, 1.2% active | AID 540256, 2011; active means well fitted inhibition curve with a large enough effect; inconclusive means small, poorly fitted or top-dose-only effect, or effect the other way; inactive means flat fitted curve, though single readings scatter; tested in HEK293 cells; also: % is scaled to controls: 0 for no effect and ±100 for the full control effect; nearly all actives have a fitted effect of over 50% in size; luciferase read-out
RE007 growth inh – qHTS Assay for Inhibitors of the HIV-1 protein Vpr | S. pombe RE007 Vpr strain, BacTiter-Glo ATP luminescence, 24 h; control for the full effect not named in the record | Potency, µM (titrated, usually from 92.2 µM), for inactives: top-dose activity change, negative = less growth | 360,000 tested, 0.21% active; active = well fitted falling curve with a large enough effect; inconclusive = small, poorly fitted or top-dose-only effect; inactive = no such curve, though single readings can be large or run the other way;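 also: % is scaled to controls: 0 for no effect and ±100 for the full control effect; nearly all actives have a fitted effect of over 50% in size; the assay follows cell death caused by Vpr and the record does not say whether a fall means rescue or toxicity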
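Fission yeast strain RE007, carrying one chromosomally integrated HIV-1 vpr copy, was seeded at OD 0.01 in PMG+AL medium with 23 nL pinned compound. After 24 h at 30 °C and 99% humidity, viability was read by BacTiter-Glo luminescence.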
Cruzain inh noDet – qHTS Assay for Promiscuous and Specific Inhibitors of Cruzain (without detergent). Cruzipain (Trypanosoma cruzi), P25779. purified cruzain, Z-FR-AMC fluorescence, no detergent. Potency, µM, without a hit: max response, negative = inhibition, usual class: inhibitors. 200,000 tested, 2.3% active;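 also: plate controls were enzyme without inhibitor for no effect and buffer without enzyme for full effect; nearly all actives have a fitted effect of over 40% in size; top concentration of the series not given in the record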
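Purified cruzain at 1.5 nM, pre-incubated 15 min with compound at room temperature in 100 mM sodium acetate pH 5.5, 5 mM DTT, 0.00005% Triton X-100. Reaction started with 2 uM Z-FR-AMC; AMC fluorescence increase over 60 s gives rate.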
2A StopGo – High Throughput Screening for Foot and Mouth Disease Virus Antivirals; human cells with a luciferase reporter of 2A StopGo recoding; control for the full effect not named in the record; Potency, µM (top dose mostly 57.9 µM), for the others: top-dose signal change, negative = less light; 410,000 tested, 1.2% active; active = well fitted falling curve with a large enough effect; inconclusive = small, poorly fitted or top-dose-only effect; inactive = no such curve, though single readings can be large or run the other way; tested in HEK293T cells; also: % is scaled to controls: 0 for no effect and ±100 for the full control effect; nearly all actives have a fitted effect of over 45% in size; luciferase light after 4 h
MARV entry inh – qHTS for inhibitors of binding or entry into cells for Marburg Virus | Potency, µM (series often up to 37.8 µM), for inactives: at the top dose activity change, negative = inhibition, actives largely listed as inhibitors | 300,000 tested, 1.8% active | AID 540276, 2011 | Marburg virus pseudotyped entry inhibition, cell reporter; control for the full effect not named in the record; about a third of the inactives were read at about 46 µM; active = well fitted inhibition curve with a large enough effect; inconclusive = small, poorly fitted or top-dose-only effect, or effect the other way; inactive = flat fitted curve, though single readings scatter; tested in HEK293 cells; about a fifth of its hits are not listed in these tables; also: % is scaled to controls: 0 for no effect and ±100 for the full control effect; luciferase read-out
NS1 inh – qHTS Assay for Inhibitors of Influenza NS1 Protein Function | 270,000 tested, 0.4% active | S. cerevisiae slowed by influenza A NS1, growth recovery by OD600 | AID 2326, 2010 | Potency, µM (highest dose often 46.1 µM), for inactives: at the top dose activity, positive = more growth; active means well fitted rising curve with a large enough effect; inconclusive means small, poorly fitted or top-dose-only effect; inactive means no such curve, though single readings can be large or run the other way; also: nearly all actives have a fitted effect of over 50% in size
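In this qHTS, NS1 from influenza A is expressed in budding yeast, where it slows growth. Cells are switched from glucose to 2% galactose medium (pH 6.0, -URA), treated with compound, and growth recovery is read at OD600.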
SARS PLP yeast – qHTS of Yeast-based Assay for SARS-CoV PLP; S. cerevisiae expressing SARS-CoV PLpro, growth rescue; control for the full effect not named in the record; Potency, µM (titrated, usually from 32.9 µM), for inactives: top-dose activity, positive = growth rescue; 330,000 tested, 0.19% active; active means well fitted rising curve with a large enough effect; inconclusive means small, poorly fitted or top-dose-only effect; inactive means no such curve, though single readings can be large or run the other way; also: 0% is about no effect; nearly all actives have a fitted effect of over 55% in size; growth read by luminescence after 48 h
* marks the source's active call; other numbers are inactive results; ? = inconclusive; / = not tested or not shown; & = joins results of further samples; [ ] = another dose, or the depositor's remark. Unless noted, calls follow the shape of the dose curve; as a rule, active = well fitted curve in the direction sought with a large enough effect; inconclusive = small, poorly fitted or top-dose-only effect, or another doubt; inactive = no such curve, though single readings can be large; an effect the other way counts as inactive or inconclusive. Potency is read from the fitted curve at half-maximal effect.

SMILES	Cruzain Triton	LASV entry inh	RE007 growth inh	Cruzain inh noDet	2A StopGo	MARV entry inh	NS1 inh	SARS PLP yeast
CCn1c(COc2cccc(C)c2)nnc1SCC(=O)Nc1cccc(C(=O)OC)c1	-7.4%	7%	-4%	?	-17%	0%	-20%	-1%
O=[N+]([O-])c1ccc(/C=C2\CCC(C3=CCCC3)=C2N2CCOCC2)cc1	-10%	-1%	?	?	-15%	-11%	-38%	-64%
Cc1ccc(Nc2cnn(C34CC5CC(CC(CC(=O)O)(C5)C3)C4)c(=O)c2Cl)cc1C	-0.8%	-12%	10%	-14%	/	-2%	26%	1%
Cc1cccc(N=C2NC(=O)/C(=C/C=C/c3ccco3)S2)c1	-6.7%	18µM*	-26%	?	9%	?	12%	-14%
O=C(Oc1cccc(OC(=O)N2CCCCC2)c1)N1CCCCC1	/	-29%[46.1 µM]	?	/	-16%	-9%[46.1 µM]	2%	-1%
O=c1[nH]c(=S)n(CCC2=CCCCC2)c(O)c1C=NCc1cccnc1	-0.8%	/	/	-8%	/	/	7%	12%
COc1ccccc1-c1cc(C(F)(F)F)nc(S(=O)(=O)CCCC(=O)NC(C)C)n1	-7.6%	?	1%	15%	8.9µM*	?	-4%	2%
CCCNC(=O)CN(c1ccc(F)cc1)S(=O)(=O)c1ccc2c(c1)OCCO2	3.3%	-1%	-3%	-7%	/	-19%	8%	-1%
CCOc1ccccc1N(C)C(=O)c1sc2ncn(CC(=O)N3CCCCC3C)c(=O)c2c1C (stereo not given)	/	-1%[46.1 µM]	-10%	/	-13%	25%[46.1 µM]	-1%	-2%
CCOC(=O)N1CCN(C(=O)c2ccc3oc(CCCc4ccccc4)nc3c2)CC1	/	?	4%	/	-3%	?	-42%	/
Cc1noc(C)c1CSc1nc2ccccc2c(=O)n1-c1ccc(F)cc1F	-4.7%	-19%	2%	-2%	?	?	-34%	-4%
CC(C(=O)NCC1(c2ccccc2)CCOCC1)N1CCOCC1 (stereo not given)	/	?	-12%	/	1%	8%[46.1 µM]	8%	0%
CCOc1ccc(OCC)c2sc(C)nc12	1.9%	-6%	-24%	-6%	-17%	-3%	-13%	-5%
CCc1onc(C)c1C(=O)Nc1cc(C)ccc1OC	0.6%	1%	-6%	8%	-10%	4%	-8%	1%
CC(C)CN(C(=O)c1cccc(S(=O)(=O)N2CCN(C)CC2)c1)C1CCS(=O)(=O)C1 (stereo not given)	/	16%	9%	/	-16%	11%	/	3%
COc1ccc(CN(CC(=O)NCc2ccco2)C(=O)CCC(=O)Nc2nccs2)cc1	1.2%	-29%	-6%	3%	0%	?	4%	-9%
COc1ccc(S(=O)(=O)Nc2ccc3oc4ncccc4c(=O)c3c2)cc1OC	/	-17%	17%	/	25%	?	7%	1%
CC1CCCCC1NC(=O)c1ccncc1 (stereo not given)	/	/	3%	/	11%	/	-3%	-2%
COc1ccc(/C=N/NC(=O)c2ccc(-c3ccccc3)cc2)cc1O	-3.0%	?	-1%	2%	?	10%	3%	-3%
COc1ccc(OC2C(=O)N(Cc3ccc4c(c3)OCO4)C2c2cccs2)cc1 (stereo not given)	-1.2%	-10%	1%	4%	/	?	6%	-3%
Cc1ccc(Cl)cc1NC(=O)CSc1nccn1C	-0.1%	24%[46.1 µM]	/	1%	3%	/	/	/
O=S(=O)(c1ccccc1Br)N1CCC(O)(c2cccnc2)CC1	/	-6%	-1%	/	-25%	?	7%	0%
CCn1c(SCC(=O)NNC(=S)Nc2ccccc2)nnc1-c1ccc(Cl)cc1	-3.4%	8%	29%	3%	-24%	11%	-1%	-5%
Cc1cc(C(=O)NCc2ccc(C(=O)O)o2)c(C)o1	0.8%	-3%	8%	-9%	-11%	3%	?	-6%
O=C(Cn1cnc2c(oc3ccccc32)c1=O)c1ccccc1	-4.2%	-1%	-22%	4%	72%[activator]	16%	-62%	-15%
Cc1ccc(-n2ncc3c(NNC(=O)c4ccccc4C)ncnc32)cc1	0.4%	1%[46.1 µM]	/	6%	-3%	/	/	/
COC(=O)CCN(C(=O)C1CCN(S(=O)(=O)c2c(C)noc2/C=C/c2ccccc2F)CC1)c1ccccc1	-3.3%	3%[46.1 µM]	/	?	-7%	/	/	/
CCOC(=O)c1cc2sccc2n1CC(=O)O	4.5%	20%	3%	2%	/	16%	2%	-2%
COc1ccc(C23CC4CC(CC(C4)C2)C3)cc1C(=O)NCCN(C)C	/	/	46%	/	-19%	/	4%	-4%
COc1nnc(-c2ccc(N3CCCCC3)c(NC(=O)c3ccccc3Cl)c2)c2ccccc12	-5.3%	?	/	-4%	?	?	/	/
CCN(CC)C1CC(=O)N(c2ccc(Br)cc2)C1=O (stereo not given)	/	1%	2µM*	/	1%	?	-158%	-23%
CC(C)(C)c1ccc(C(=O)NC(=S)Nc2nc3c(s2)CCCC3)cc1	-2.3%	?	5%	?	?	1.3µM*	4%	12%
Cc1cc(NC(=O)CSc2nnc(C3CC3)n2N)c([N+](=O)[O-])cc1C	/	3%[46.1 µM]	-4%	/	38%[activator]	2%[46.1 µM]	/	-5%
CC(=O)Nc1ccc(S(=O)(=O)N2CCC(C(=O)NCCc3c[nH]c4ccccc34)CC2)cc1	/	/	-10%	/	-12%	/	-4%	-1%
COc1cc(C(=O)Nc2ccc(S(=O)(=O)Nc3nccc(C)n3)cc2)c([N+](=O)[O-])cc1OC	/	2%	25%	/	-8%	2%[46.1 µM]	4%	1%
CC(C)(C)Nc1ncnc2sc(-c3ccccc3)cc12	/	/	3%	/	?	/	-3%	0%
CCN(CC)c1ccc(NC(=O)c2cc(S(=O)(=O)N3CCc4ccccc43)cn2C)c(C)c1	-2.9%	1%[46.1 µM]	/	-4%	-2%	/	/	/
O=C1OCc2cc(NS(=O)(=O)c3cccs3)ccc21	-2.5%	28%	26%	-18%	/	1%	-1%	4%
CC(=O)NCC(=O)OC(C)C(=O)Nc1ccc(C(C)=O)cc1 (stereo not given)	4.5%	16%	2%	-7%	21%	29%	0%	2%
CCN1C(=O)CSc2ccc(C(=O)NCc3ccc(OC)cc3)cc21	-1.2%	0%	1%	12%	-22%	-9%	2%	4%
COc1cc(CNCCc2ccccc2F)ccc1OCc1ccc(Cl)nc1	4.6%	8%	4%	1%	7%	?	-9%	-3%
COc1ccccc1CNC(=O)CCC1N=C2c3ccccc3N=C(SCc3ccc(C)cc3C)N2C1=O (stereo not given)	-9.3%	?	/	-3%	-25%	?	/	/
COc1cc(C=O)ccc1OCc1cccc(Br)c1	-5.1%	1%	-17%	-3%	50%[activator]	?	-44%	4%
CC1(C)CC(NC(=O)c2cccc([N+](=O)[O-])c2)CC(C)(C)N1	/	3%	7%	/	-14%	?	12%	1%
CCCn1c2ccccc2c2cnn(CC(=O)NC(C)CC)c(=O)c21 (stereo not given)	/	-8%[46.1 µM]	-5%	/	-19%&-5%	/	1%	0%
CCOC(=O)CN(C(=O)COc1nc(C)cc(C)c1C#N)c1ccc(Cl)cc1	/	/	23%	/	-19%	/	-6%	2%
Cc1c(O)ccc2c(CN3CCN(Cc4ccccc4)CC3)cc(=O)oc12	/	/	-10%	/	?	/	8%	0%
COc1cc(/C=C2\SC(=O)N(CC(=O)Nc3cccc(C)c3)C2=O)ccc1OC(C)C(=O)O (stereo not given)	/	4%[46.1 µM]	9%	/	-2%	?	/	/
CCCN(Cc1cccs1)C(=O)Nc1cc(C)ccc1OC	-6.4%	17%[46.1 µM]	/	-9%	-5%	5%[46.1 µM]	/	/
O=C(C1CC(=O)N(c2ccc3c(c2)OCCO3)C1)N1CCN(S(=O)(=O)c2ccccc2F)CC1 (stereo not given)	/	-14%	-22%	/	?	3%	/	/
COc1ccc(CC(=O)NCc2ccc3c(c2)CCN3C(=O)c2ccc(C)cc2)cc1OC	5.3%	-25%[46.1 µM]	/	?	-23%	/	/	/
CCOc1ccccc1NC(=O)Cn1cnc2c1c(=O)n(C)c(=O)n2C	-3.2%	-18%[46.1 µM]	/	1%	-15%	/	/	/
Cc1c(C(=O)N2CCOCC2)oc2c1-c1nn(CC(=O)NCc3cccc(Cl)c3)cc1CC2	-5.0%	-30%[46.1 µM]	/	13%	?	/	/	/
O=c1[nH]c(=S)n(Cc2ccc(F)cc2)c(O)c1C=NCc1ccc2c(c1)OCO2	/	-15%[46.1 µM]	-6%	/	0%	-10%[46.1 µM]	-1%	-3%
COc1cccc(C(=O)NCC(=O)OCC(=O)NC2CCCCC2)c1	/	1%	13%	/	-8%	-8%	/	14%
Cn1c(=O)cc(SCC(=O)NCC2COc3ccccc3O2)c2ccccc21 (stereo not given)	1.1%	?	0%	-3%	-16%	25%	-6%	6%
CCN1CCCC1CNC(=O)Cn1cnc2sc(C)c(S(=O)(=O)N3CCC(C)CC3)c2c1=O (stereo not given)	0.8%	-8%	1%	-11%	-4%	?	0%	-21%
O=C(c1ccc(F)cc1)N1CCCC(C(=O)N2CCCCC2)C1 (stereo not given)	/	/	3%	/	-24%	/	-5%	1%
CCCCn1c(N)c(N(CC(C)C)C(=O)c2ccc(N3C(=O)c4ccccc4C3=O)cc2)c(=O)[nH]c1=O	/	5%	13%	/	-12%	?	/	-6%
c1ccc(CCN(Cc2ccccc2)C2CCN(C3CCCC3)CC2)cc1	/	-1%	-16%	/	-10%	-13%[46.1 µM]	/	-4%
CC(O)c1cccc(NC(=O)CCC(=O)O)c1 (stereo not given)	2.1%	-8%	-2%	10%	/	20%	7%	-7%

Rows are unselected; 4.7% or so of the library scored in one or more.
